Assay outcomes from PubChem BioAssay.
MT1-MMP act inh – inhibitors of human MT1-MMP activation; P50281; HT1080 RFP-PRO-GFP cells, GFP/RFP ratio fluorescence, overnight; percent of plate control window, DMSO zero; GFP/RFP ratio change, % at 20 µM; 0.061% of 360,000 active;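 active means GFP/RFP ratio change of at least 30% with cell ATP level not reduced by more than half and red fluorescence within 50% of control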; further: strong numbers were not always called active
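Test system: HT1080 RFP-PRO-GFP cells; Benchmarks: DMSO and RFP-L50D-GFP cell wells; Timing: cells overnight before dosing, compound overnight, 37 °C, 5% CO2; Compound: one 20 µM compound dose with 1% DMSO; Read-out: GFP/RFP fluorescence ratio.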
CSC inhib – cancer stem cell inhibition; cancer stem cell-like cells viability, luminescence; inhibition, % at 7.5 µM; 1.1% of 300,000 active;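 active means mean at 75% or more and at least half the replicates too; inconclusive means mean and replicates disagree; tested in HMLE shEcad cells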;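 further: 0% = median of negative and 100% = median of positive control wells; the first replicate is given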
Env fusion inh – inhibitors of HIV Env-mediated cell fusion; HeLa-JRFL Env/CEM21 cell fusion, luciferase; inhibition, % at 12.3 µM; 1.1% of 360,000 active; AID 651610;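 active means mean replicate inhibition score of at least 50 and every replicate individually at or above 50; inconclusive means only one of the two criteria met; inactive means mean below 50 and not all replicates reaching 50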;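 further: 0% = plate neutral controls and 100% = maraviroc near 300 nM; one replicate is shown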
Rce1 inh – inhibitors of yeast Ras-converting enzyme; calls only; yeast membranes, quenched prenylated peptide cleavage fluorescence; 0.27% of 290,000 active;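 active means fall in fluorescence gain of 50% or more versus controls, with final raw signal at or below 3038400; inconclusive means same 50% fall but final raw signal above 3038400; inactive means fall in fluorescence gain under 50%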;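 further: plate controls were neutral control wells for no effect and wells lacking membranes for full effect; tested at 10 µM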
Target sequence (Q03530 whole entry, looked up): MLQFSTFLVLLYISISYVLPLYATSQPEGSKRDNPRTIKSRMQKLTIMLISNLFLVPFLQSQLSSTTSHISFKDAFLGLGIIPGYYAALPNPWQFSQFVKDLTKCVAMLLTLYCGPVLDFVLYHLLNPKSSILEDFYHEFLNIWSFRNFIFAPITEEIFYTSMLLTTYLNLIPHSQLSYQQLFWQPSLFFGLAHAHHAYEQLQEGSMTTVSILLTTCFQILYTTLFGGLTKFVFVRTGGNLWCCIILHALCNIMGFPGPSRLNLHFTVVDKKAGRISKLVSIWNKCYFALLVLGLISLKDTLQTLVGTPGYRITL
PABP FP inh – blocks human PABP binding to poly(A) RNA. inhibition, % at 35 µM. fluorescence polarization. P11940. 1% of 290,000 active;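 active means 50% or more with normal probe brightness, or confirmed in later tests; inconclusive means above 50% with abnormal brightness, or retests that disagree; inactive means below 50% or failed in later tests; about a fifth of its hits are not listed in these tables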;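 further: calls also rest on retests at 20 µM and on dose response follow-up; controls were probe without protein and protein plus probe with vehicle; some compounds called inactive have numbers as strong as hits; many hits fall short of the cut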
eIF4H inh – inhibitors of RNA binding by human eIF4H. eIF4H fluorescence polarization binding assay. inhibition, % at 35 µM. 0.94% of 290,000 active;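 active means 50% or more with normal probe brightness, or confirmed in later tests; inconclusive means above 50% with abnormal brightness, or retests that disagree; inactive means below 50% or failed in later tests; about a fifth of its hits are not listed in these tables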;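 further: calls also rest on retests at 20 µM and on dose response follow-up; 0% = protein and probe with vehicle and 100% = probe without protein; strong numbers were not always called active; many hits fall short of the cut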
UUG fidelity – alters start codon recognition fidelity in yeast; S. cerevisiae UUG-firefly luciferase reporter, luminescence/redox ratio; AID 602363; 0.13% of 350,000 active; activity score, % at 18.7 µM;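 active means replicate mean at a twofold rise or more, about +100% in these data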;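 further: firefly luciferase made from a UUG start codon reports start codon fidelity; reporter light over untreated wells divided by growth signal over untreated wells; some hits fall short of that in this replicate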
MT1-MMP act inh RFP – second read-out of MT1-MMP act inh, no call of its own (marks repeat the call); RFP signal change, %; measured here: RFP expression control read;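 0 = vehicle wells; hits needed this value within 50% of zero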
Numbers without * were called inactive; i = inactive; ? = inconclusive; . = not tested or not shown; & = joins results of further samples; [ ] = remark or other dose.

SMILES,MT1-MMP act inh,MT1-MMP act inh RFP,CSC inhib,Env fusion inh,Rce1 inh,PABP FP inh,eIF4H inh,UUG fidelity
Cc1cccc(C(=O)NCCC(=O)N2CCc3ccccc3C2)c1,-3,4,0,5,.,.,.,-14
CCC(=O)N1c2ccc(S(=O)(=O)NCCc3ccc(OC)c(OC)c3)cc2CC1C (stereo not given),1,0,12,8,i,10,-6,0
CCc1c(C)nc2ncnn2c1N1CCC(C(=O)Nc2cccc(C(C)=O)c2)CC1,-2,-6,0,-52,i,6,-19,-21
O=C(CCc1nc2ccccc2s1)OCc1ccccc1,2,5,-4,11,i,8,-5,.
NC(=O)c1cc(Br)cc(C2CCCCC2)c1O,0,-1,58,-2,i,4,-4,-21
COc1ccc(NC(=O)CCS(=O)(=O)c2ccc3c(c2)CCN3C(C)=O)cc1,2,3,-12,-13,i,11,5,-9
COc1ccc(NC2c3ncccc3C(=O)N2Cc2cccs2)cc1 (stereo not given),-5,2,-6,10,i,-2,2,.
C[C@H](CO)N1C[C@H](C)[C@@H](CN(C)C(=O)Nc2ccccc2)Oc2c(NC(=O)Nc3ccc4c(c3)OCO4)cccc2C1=O,4,4,0,1,.,.,.,-18&6
COCCN(CC(=O)NCc1ccc(OC)cc1)C(=O)CCC(=O)Nc1nccs1,-2,3,-16,.,i,-1,-2,-9
Cc1cccc(NC(=O)Cn2c(=O)n(CCC(=O)NC3CCCC3)c(=O)c3ccccc32)c1,-3,-2,.,-14,i,3,-5,-21
COc1ccc(/C(O)=C2/C(=O)C(=O)N(CCN(C)C)C2c2ccccn2)cc1OC (stereo not given),0,0,-5,-6,i,6,6,-1
CC(=O)NS(=O)(=O)c1ccc(NC(=O)c2cc(-c3cccs3)nc3ccccc23)cc1,0,-3,-1,-5,i,-13,-2,.
COc1ccc(C(=O)NCC(=O)OCc2c(Cl)cccc2Cl)cc1OC,6,-1,.,-3,.,.,.,19
CCOC(=O)N1CCN(C(=O)c2cc(COc3ccc(Cl)cc3OC)on2)CC1,1,-1,-10,3,i,-5,-7,2
CCOc1ccc(CNC(=O)CCCc2cn(C)c3ccccc23)cc1,1,3,-1,6,i,-2,-14,-6
CCOC(=O)c1c(NC(=O)c2nn(CC)cc2Br)sc2c1CCCCC2,-4,-3,85*,12,i,1,8,-13
C[C@H]1CN([C@@H](C)CO)C(=O)CCCn2cc(nn2)CO[C@@H]1CN(C)C(=O)Nc1ccc(C(C)(C)C)cc1,5,7,.,7,.,.,.,5&16
O=C(CSc1nc2ccc(S(=O)(=O)N3CCOCC3)cc2[nH]1)N1CCOCC1,12,9,16,.,i,-2,4,-3
CC(C)CN(C(=O)CCC(=O)OCC(=O)NCCc1ccccc1)c1c(N)n(CC(C)C)c(=O)[nH]c1=O,-12,-3,11,8,i,20,6,13
CC(=O)Nc1cccc(S(C)(=O)=O)c1,3,4,13,-12,i,32,-12,-6
CC(C)(C)c1ccccc1OCCN1CCCC1,-2,2,-20,.,i,6,10,-13
CC(C)CSc1nc2c(c(=O)[nH]c(=O)n2C)n1CC(O)COc1cccc2ccccc12 (stereo not given),1,5,.,.,i,1,8,-5
COC(=O)CC1=C(C(=O)OC)[C@@H](c2ccccc2[N+](=O)[O-])C(C#N)=C(N)O1,-1,4,-28,-14,i,9,13,-9
Cc1cccc(NC(=O)C23CCC(C)(C(=O)O2)C3(C)C)c1 (stereo not given),2,7,-10,?,i,6,9,.
CCOC(=O)C1(Cc2cccc(F)c2)CCN(Cc2cn(CC)nc2C)CC1,4,6,17,-11,i,-4,3,.
COc1ccccc1-c1ccc([C@@H]2C[C@H]3[C@H](CON3C)CN2C(=O)c2ccc(-c3ccccc3)cc2)cc1,-3,-8,.,2,.,.,.,-21
CC(=O)Nc1ccc(NC(=O)COc2cc(O)c3c(c2)OC(C)(C)CC3=O)cc1,0,1,-6,.,i,12,-5,-3
Cc1cccc(NC(=O)CN(CC2CCCO2)C(=O)c2oc3ccc(F)cc3c2C)c1C (stereo not given),5,0,.,11,.,.,.,1
COC(=O)C[C@H]1c2cc(C(F)(F)F)ccc2S(=O)(=O)N1Cc1ccccc1OC,-1,1,-4,18,i,.,.,4
COc1ccccc1N(CC(O)COc1ccccc1)S(=O)(=O)c1ccccc1 (stereo not given),6,1,4,-28,i,4,-10,11
COC(C[C@H]1O[C@H]1C(=O)[C@@H](C)OCc1ccccc1)OC,1,3,-15,?,i,.,.,-8
CCSc1nc2c(c(=O)n1-c1ccc(F)cc1)SCC2,2,-4,.,21,i,-9,-3,-11
O=C(COc1ccccc1)Nc1cc(C(F)(F)F)ccc1N1CCCC1,-12,-25,19,.,i,-2,8,-13
Cc1nonc1OCCn1nnnc1N,4,0,.,.,i,6,0,.
COc1ccc(CCNC(=O)CCc2cc(OC)c(OC)c(OC)c2)cc1OC,1,2,-8,1,i,1,-5,-1
COc1ccc(C#Cc2c(-c3ccccc3)n(-c3ccccc3)c3ccc(CO)cc23)cc1,-2,-6,.,8,.,.,.,-17
COc1ccc(NC(=O)CCS(=O)(=O)c2ccc3nc(C)sc3c2)cc1OC,-1,3,-9,-54,i,-1,-11,-7
Cc1c(N(C)S(=O)(=O)c2cc(C(=O)Nc3ccccn3)ccc2Cl)c(=O)n(-c2ccccc2)n1C,0,1,0,-13,i,.,.,1
CCc1ccccc1NC(=O)Cn1nc(C(F)(F)F)cc1C1CC1,3,1,-6,.,i,-3,2,.
O=C(COC(=O)Cc1c[nH]c2ccccc12)Nc1cc(S(=O)(=O)N2CCOCC2)ccc1Cl,3,3,10,-1,.,.,.,-6
O=C(CCCCCN1C(=O)[C@@H]2Cc3ccccc3CN2C1=O)Nc1cccc(F)c1,-1,-14,-9,5,i,.,.,-11
CC(SCC(=O)O)c1nc2ccccc2[nH]1 (stereo not given),-11,1,.,1,i,0,-6,-7
Cc1ccc(/C=C2/C(=O)N=C(N)N2C)s1,-12,7,-1,9,i,-6,-1,.
CCN(CC)S(=O)(=O)c1ccc(C(=O)Nc2cccc(C)c2)cc1,0,3,-7,.,i,4,1,.
Nc1nc2ccc(Cl)cc2o1,-5,-1,.,8,.,.,.,-12
CCNc1ncnc2c1cnn2C,2,2,-11,-14,i,-6,-7,-5
CN(C)C(CNC(=O)CSc1nc2ccccc2c(=O)n1Cc1ccco1)c1ccccc1 (stereo not given),-9,0,-7,15,i,.,.,-3
CC(C)[C@@H](N)C(=O)N/N=C/c1ccc2ncccc2c1,1,2,-1,10,i,4,12,.
CCCCC[C@H]1CN(Cc2ccc(OC)cc2)C(=O)[C@@H]1CC(=O)NCc1ccccc1,-1,-1,9,-14,i,-6,0,8
COc1ccc(C(=O)NCC2CCCN2S(=O)(=O)c2cccs2)cc1 (stereo not given),-2,-1,-7,-26,i,.,.,-8
COc1cccc(NC(=O)CN(C)CC(=O)Nc2ccc(C)c([N+](=O)[O-])c2)c1,-5,-8,-8,36,i,13,-2,.
COc1cc(N(C(=O)Cc2cccs2)C(C(=O)NC2CCCCC2)c2ccc(C)cc2)ccc1-n1cnnn1 (stereo not given),-5,-5,0,.,i,-8,-8,.
OC1CCN(c2c3c(nc4cc(-c5ccc(Cl)cc5)nn24)CCC3)CC1,1,-7,1,.,i,6,-10,5
O=C(CSc1nnc(NC(=O)c2ccccc2)s1)NC1CCCC1,1,-1,8,0,i,2,10,-17
Cc1nnc(SCc2nnc(-c3ccc(Cl)cc3)o2)n1-c1ccccc1,3,0,-6,.,i,5,-3,-12
O=C(Cc1c(F)cccc1Cl)Nc1ccccc1N1CCCCC1,-6,-6,1,29,i,-2,2,.
CCn1c(=O)c(C(=O)Nc2ccccc2S(N)(=O)=O)c(O)c2ccccc21,0,-2,.,.,i,-11,4,-35
CCOC(=O)c1c(C)[nH]c(C(=O)OCC(=O)NCc2ccc(OC)c(OC)c2)c1C,0,-5,8,50,.,.,.,-11
COc1ccccc1NS(=O)(=O)c1cccc(C(=O)N/N=C2\CC(=O)CC(C)(C)C2)c1,-3,5,-5,-14,i,2,12,.
CS(=O)(=O)Nc1cccc(-c2cc(NC=O)c3ncc(-c4ccc(F)c(Cl)c4)n3c2)c1,-5,-3,.,-13,.,.,.,-14

Carrying on.
SMILES,MT1-MMP act inh,MT1-MMP act inh RFP,CSC inhib,Env fusion inh,Rce1 inh,PABP FP inh,eIF4H inh,UUG fidelity
CC(Oc1cc2oc(=O)c3c(c2cc1Cl)CCCC3)C(=O)NCC1CCC(C(=O)O)CC1 (stereo not given),0,4,-7,0,i,5,-4,-7
C=CCn1c(SCC(=O)NCC2CCCO2)nc2c([nH]c3ccccc32)c1=O (stereo not given),0,-2,3,17,i,3,-10,-3
CNC[C@H]1Oc2c(NC(=O)c3ccc(-c4nccs4)cc3)cccc2C(=O)N([C@@H](C)CO)C[C@@H]1C,-2,4,-18,2[16.7 µM],.,.,.,-8
COc1ccc(CC(=O)N2N=C(C)CC2(O)c2cccnc2)cc1 (stereo not given),0,-6,.,18,i,-8,-7,-14
COCCN(C(=O)CNC(=O)c1ccco1)C(C(=O)NC1CCCC1)c1cccc(OC)c1 (stereo not given),0,-1,.,9,i,-7,-16,-4
Cc1ccc(CN(C)C(=O)COC(=O)CSc2ccc([N+](=O)[O-])cc2)cc1,0,4,-9,-11,i,.,.,.
C=CCN(c1cccc(C(F)(F)F)c1)S(=O)(=O)c1cccc(C(=O)OCC(=O)NC)c1,-1,0,1,-10,i,4,-7,.
CC(=O)[C@@H]1[C@@H]2C(=O)N(c3ccccc3F)C(=O)[C@@H]2[C@H]2c3ccccc3C=NN12,-2,4,0,-13,i,18,-2,1
O=C(/C=C/c1cccc(Br)c1)NCC1CCCCC1,-1,-4,18,3,i,-14,-6,.
CCOc1ccc(CCNC(=O)COC(=O)C2CCN(S(=O)(=O)c3ccc(C)c(C)c3)CC2)cc1OCC,7,6,-6,5,i,-3,-21,17
O=C(CSc1nnnn1-c1cccc2ccccc12)Nc1ccc(N2CCOCC2)c(Cl)c1,8,-5,-5,13,i,3,2,-7
C=CCN(c1ccc(C(=O)Nc2ccc3c(c2)OCO3)cc1)S(C)(=O)=O,1,1,9,9,i,-11,-6,.
O=C(NCc1ccc(F)cc1)c1noc2c1CCCCC2,5,7,.,.,i,6,-2,-9
Cc1csc(SCC(=O)N(C)c2c(N)n(Cc3ccccc3)c(=O)[nH]c2=O)n1,1,-4,0,-13,i,-4,-5,.
Cc1ccc(C(=O)O/N=C(\c2ccccc2)c2ccncc2)cc1,3,3,-7,9,i,-8,-8,.
COC(=O)c1scc(C)c1NC(=O)CSc1ccc(Cl)cc1,2,-7,7,21,i,5,-9,.
O=C(CN1CCOCC1)Nc1nc2ccc(Br)cc2s1,0,-5,-5,-37,i,2,-3,-13
Cc1nn(C)c(C)c1NC(=O)/C(C#N)=C\N(C)C,-2,0,-9,8,i,8,1,-6
COc1cccc(-n2cnc3cccc(N)c32)c1,5,-5,-23,-10,i,5,10,-9

Some of these compounds in order of their number in Env fusion inh, lowest first:
Molecule	Env fusion inh
O=C(CN1CCOCC1)Nc1nc2ccc(Br)cc2s1	-37
Cc1ccc(CN(C)C(=O)COC(=O)CSc2ccc([N+](=O)[O-])cc2)cc1	-11
CCOc1ccc(CCNC(=O)COC(=O)C2CCN(S(=O)(=O)c3ccc(C)c(C)c3)CC2)cc1OCC	5

No enrichment for hits, and some 2.9% of all compounds hit somewhere here.
